NPYLR7 ag: activates Aedes aegypti NPYLR7 receptor | HEK293T NPYLR7/Galpha15, GCaMP6s calcium fluorescence | activation, % at 10 µM | actives 0.15% (n = 270,000); in the data active means activation above about 40%;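 further: 0% = vehicle and 100% = reference agonist at the receptor; some compounds past the cut are filed as inactive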
NPYLR7 ag max-min: recorded beside NPYLR7 ag, whose call it bears; activation, %; measured here: Max-Min RFU normalised activation; some inactives read as strong as hits;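 span of the calcium signal over five minutes; 0% = vehicle and 100% = native peptide agonist; compound fluorescence can raise it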
* hit, by the source's call; & = joins results of further samples. Only part of the results is shown; rates above refer to the full screens.

smiles | NPYLR7 ag | NPYLR7 ag max-min
CCn1c(SCC(=O)N=Nc2c(O)[nH]c3ccccc23)nc2ccccc21 | -1 | 2
CCN(CC(=O)Nc1ccc2c(c1)OCCO2)CC(=O)N1CCC(C)Sc2ccccc21 (stereo not drawn) | 15 | 7
CCCON1C(=O)C2C3OC(C2C1=O)C1C3C2(Cl)C(Cl)=C(Cl)C1(Cl)C2(Cl)Cl (stereo not drawn) | 0 | 11
CCCNC(=O)c1ccccc1NC(=O)Cc1n[nH]c(=O)c2ccccc12 | -7 | -9
CC1CCCCN1c1ccc(C(N)=O)cc1NC(=O)CCc1ccccc1O (stereo not drawn) | 2 | 2
COc1cccc2cc(-c3nc4ccccc4[nH]3)c(=Nc3ccc(C(F)(F)F)cc3)oc12 | 4 | 12
C=C[C@]1(C)C[C@@H](OC)C2(C)C(C)CCC3(CCC(=O)C32)[C@@H](C)C1=O (stereo partly drawn) | -1 | -3
CCCN1C(=O)C(c2c(C(C)C)[nH]n(-c3cccc(Cl)c3)c2=O)=C([n+]2cc(C)cc(C)c2)C1=O | 9 | 8
Cn1c(=O)c2c(nc(CN3CCOCC3)n2Cc2ccccc2F)n(C)c1=O | 8 | 8
COc1ccc(OCC(O)CN(Cc2ccccc2C)CC2CCCO2)cc1 (stereo not drawn) | 33 | 32
N#Cc1cccc(NC(=O)N2CCN(c3ccc(C#N)cc3F)CC2)c1 | 2 | 3
C=CCn1c(=O)c(C(=O)Nc2ccc(F)cc2)c(O)c2ccccc21 | -5 | -7
CC(CNS(=O)(=O)c1ccccc1)N1CCc2sccc2C1 (stereo not drawn) | 4 | 1
O=C(NC1CCCCC1)c1ccccc1NS(=O)(=O)c1ccc(OC(F)(F)F)cc1 | -3 | -6
Brc1ccc(-c2csc(N=CN3CCCC3)n2)cc1 | 10 | 7
CC1(C(=O)NCc2ccccn2)CCN1Cc1ccccc1OC(F)F (stereo not drawn) | 9 | 5
Cc1ccc(C)c(-n2c(C)cn3c4c(=O)[nH]c(=O)n(C)c4nc23)c1 | -2 | 8
O=C(Nc1c(Cl)cncc1Cl)c1ccc(OC(F)F)c(OCC2CC2)c1 | -7 | -17
Cc1cc(NCc2ccc(F)cc2)nc2c(C)cccc12 | 0 | -5
CC1(C)Cc2c(c(N3CCCC3)[nH]c(=S)c2C#N)CO1 | 2 | -1
COCCN(Cc1nc2scc(-c3ccc(OC)cc3)c2c(=O)[nH]1)CC(O)COCC(C)C (stereo not drawn) | 12 | 17
CCCn1c(=O)c2ccccc2n2c(=S)n(CN(C)Cc3ccc4c(c3)OCCO4)nc12 | 0 | 4
COc1ccc(/C=N\n2nnnc2N)cc1Br | -8 | -15
CCn1c(C2CCN(Cc3cc(C)n(C(C)C)c3C)CC2)nn(C)c1=O | -2 | -2
CCC(CC)C(=O)N(C)c1c(C)nc2c(OCC(=O)C(C)(C)C)cccn12 | 10 | -5
CCOC(=O)c1cc(C)n(CC(=O)NCC(C)C)c1C | -4 | -4
CC[C@H](O)[C@@H]1N(C(=O)c2csc(-c3cccs3)n2)C2CCC1(O)CC2 | 11 | 21
CCN(CC)CCCC(C)NC(=O)CSc1nc(Cl)cc(N2CCN(C(=O)c3ccccc3)C(C)C2)n1 (stereo not drawn) | 3 | 1
O=C(c1sccc1Cl)N1C[C@@H]2[C@H](C1)[C@H]1CC[C@@H]2O1 | 8 | 8
Cc1c(C(=O)NCC(C)(C)N(C)C)oc2ccc(Br)cc12 | -26 | -26
CCNc1nc(=O)c2ncn(CC3CC(CC)=NO3)c2c(=O)[nH]1 (stereo not drawn) | -1 | -5
O=C1c2ccccc2C(=O)c2cc(CSc3nnc(-c4cc(-c5ccccc5)nc5ccccc45)n3Cc3ccco3)ccc21 | -8 | -13
CCOC(=O)C1(CC2CC2)CCN(S(=O)(=O)c2ccc(C)cc2)CC1 | -1 | 4
Cc1ccccc1Cn1cccc1CN(CCC(C)C)CC(O)COCc1ccco1 (stereo not drawn) | -3 | 1
CCOC(=O)c1ccc2c(c1)nc(SCc1cc(F)ccc1Br)n2CCc1ccc(OC)cc1 | -6 | -11
CCOC(=O)c1cnc(-c2ccc(OC)c(OC)c2)nc1N1CCCC2CCCCC21 (stereo not drawn) | -4 | -2
Cc1cccc(C(=O)N2CCSC23CCN(C(=O)c2ccc([N+](=O)[O-])cc2Cl)CC3)c1 | 7 | 13
CCc1nc(CN2CCN(CCc3ccccc3)C(CCO)C2)c(C)[nH]1 (stereo not drawn) | 18 | 6
COCCN(Cc1cc(NC(=O)c2cccc(F)c2)ccc1N(C)C)C(=O)C1CC1 | 14 | 24
Cn1ccnc1 | 2 | -21

Part of the list above, with two lines to a compound.
Under each structure: NPYLR7 ag | NPYLR7 ag max-min
O=C(c1sccc1Cl)N1C[C@@H]2[C@H](C1)[C@H]1CC[C@@H]2O1
→ 8 | 8
CC[C@H](O)[C@@H]1N(C(=O)c2csc(-c3cccs3)n2)C2CCC1(O)CC2
→ 11 | 21
CCOC(=O)c1ccc2c(c1)nc(SCc1cc(F)ccc1Br)n2CCc1ccc(OC)cc1
→ -6 | -11

Further structures:
smiles | NPYLR7 ag | NPYLR7 ag max-min
CC(SCC1CCCO1)C(=O)O (stereo not drawn) | 29 | 24
COc1ccc(-n2c(Cc3ccccc3)nnc2SCCCCC(=O)N2CCN(C(=O)c3cccc(C(F)(F)F)c3)C(C)C2)cc1 (stereo not drawn) | 19 | 18
CN(CC1CCCCN1C)C(=O)c1cc(COc2ccc(F)cc2Cl)on1 (stereo not drawn) | 7 | 7
CNC(=O)CN(C(=O)c1cc(C)nn1C)[C@@H]1C[C@@H]2CO[C@H](C(C)C)C[C@@H]2C1 | 5 | 6
CCc1cc2c(N3C(C(N)=O)CC4CCCCC43)ncnc2s1 (stereo not drawn) | -2 | -1
COc1ccc(S(=O)(=O)NCC2CCCN(C(=O)C3=CCCCC3)C2)cc1 (stereo not drawn) | 26&-4 | 13&-4
CC(C)[C@H](Nc1ccnc(C(C)(C)C)n1)C(=O)N1CCCC1 | 7 | 10
CC1NCCN(c2ccc(Oc3ccccc3)cc2)C1=O (stereo not drawn) | -2 | 0
Cc1ccc(OCc2cc(C(=O)N3CCN(CC(=O)NC(C)C)CC3)no2)cn1 | 0 | -3
O=C(CCc1cccnc1)N1CCOC(Cc2cccc3ccccc23)C1 (stereo not drawn) | 15 | 7
Cc1cc(N2CCN(CC(=O)Nc3cc(Cl)ccc3F)CC2)nc(C(C)C)n1 | 4 | 3
COCCn1c(C)cc(O)c(C(c2ccccc2F)N2CCN(C)CC2)c1=O (stereo not drawn) | 2 | 0
CCc1nccn1CCC(=O)N1CCc2c([nH]c3ccccc23)C1c1cccc(C)n1 (stereo not drawn) | 11&-9 | 1&-13
CCCc1[nH]n(C)c(=O)c1C1=C(N2CCC(C)CC2)C(=O)N(Cc2ccco2)C1=O | 28 | 37
CCc1nc2ccc(C(=O)NCCNC(C)=O)cn2c1N(C)CCCc1ccccc1 | 15 | 9
CNc1cnc(-c2cc(OC)c(OC)c(OC)c2)cn1 | 2 | 1
Cc1cn2c3c(=O)n(Cc4c(F)cccc4Cl)c(=O)n(C)c3nc2n1CCO | 6 | 2
COc1ccccc1/C=C/C=C1N=C(/C=C\c2cccc([N+](=O)[O-])c2)OC/1=O | 10 | 12
COc1ccc(C(NC(=O)C2CCN(CCOc3ccc(Cl)cc3)CC2)c2ccccc2C)cn1 (stereo not drawn) | -4 | -10
COc1ccc(CC2(CCC(=O)NCC3CC4C=CC3C43CC3)CCC(=O)N2)cc1OC (stereo not drawn) | 4 | 0

Compounds shown so far with a cyano group, in the order listed:
smiles | NPYLR7 ag | NPYLR7 ag max-min
N#Cc1cccc(NC(=O)N2CCN(c3ccc(C#N)cc3F)CC2)c1 | 2 | 3
CC1(C)Cc2c(c(N3CCCC3)[nH]c(=S)c2C#N)CO1 | 2 | -1

The main list resumes, starting 5 compounds before the break.
smiles | NPYLR7 ag | NPYLR7 ag max-min
CNc1cnc(-c2cc(OC)c(OC)c(OC)c2)cn1 | 2 | 1
Cc1cn2c3c(=O)n(Cc4c(F)cccc4Cl)c(=O)n(C)c3nc2n1CCO | 6 | 2
COc1ccccc1/C=C/C=C1N=C(/C=C\c2cccc([N+](=O)[O-])c2)OC/1=O | 10 | 12
COc1ccc(C(NC(=O)C2CCN(CCOc3ccc(Cl)cc3)CC2)c2ccccc2C)cn1 (stereo not drawn) | -4 | -10
COc1ccc(CC2(CCC(=O)NCC3CC4C=CC3C43CC3)CCC(=O)N2)cc1OC (stereo not drawn) | 4 | 0
CCN(CC)CCN(C(=O)c1cc(C)nn1C)c1nc2c(F)cc(F)cc2s1 | 4 | 1
Cc1ccc(C(=O)N2CC(=O)N(CC3CC3)CC(O)C2)cc1 (stereo not drawn) | 3 | 13
Cc1ccc(CNC(=O)c2c[nH]c(=S)n2-c2ccc(F)cc2)cc1 | 12 | 3
Cc1ccc(Nc2ncccc2Cl)cc1 | 0 | 0
O=C(CCCc1ccc(Cl)cc1)NCC(=O)Nc1ccc(F)c(F)c1F | -3 | -4
O=C(c1cccc(N2CCNC2=O)c1)N1CC[C@@H](c2ccc(F)cc2)[C@H](O)C1 | -2 | -3
O=C(Nc1cccnc1N1CCN(C(=O)COc2cccc(Cl)c2)CC1)c1ccc2c(c1)OCO2 | -2 | 1
COC(=O)c1c(C)nc2nonc2c1N | -1 | -2
COc1ccc(-n2c(=O)[nH]c3c(C(N)=O)nc(-c4ccncc4)nc32)cc1 | 5 | 2
O=C1/C(=C/c2ccc([N+](=O)[O-])cc2)C=C(c2ccccc2)N1c1cccc(Cl)c1Cl | 0 | 8
C=CCNC(=O)CSc1nc(N)c2c3c(sc2n1)CCCCC3 | 13 | 6
Cc1ccc(-n2nnnc2CNC(=O)c2cc(C(F)(F)F)cc(C(F)(F)F)c2)cc1C | 4 | -1
Cc1cc(C(=O)COc2ccc(F)c(Cl)c2)c(C)n1C1CC1 | 8 | 7
C#CCN(CC=C)C(=O)c1cccc(NC(=O)C2CCCC2)c1 | 0 | -2
CC(Cc1cnccn1)NC(=O)c1cn(CCN2CCCCC2)nn1 (stereo not drawn) | 6 | 1
Cc1cc(N2CCN(c3cccc(Cl)c3)CC2)nc(-n2cc([N+](=O)[O-])cn2)n1 | 5 | 5
CCC(=O)C1=C(c2ccc(OC)c(OC)c2)N(C(=O)CC)n2c(nnc2-c2ccc(C)cc2)S1 | 21 | 19
CC(Sc1nccn1-c1ccccc1)c1nc(N)nc(N(C)C)n1 (stereo not drawn) | 2 | 0
C=CCOCC(O)CN(Cc1ccc(C)cc1C)CC1CCCO1 (stereo not drawn) | 38 | 24
COc1ccnc(NCCc2cn3ccccc3n2)n1 | 0 | 14

Another view of some results above:
SMILES: C=CCOCC(O)CN(Cc1ccc(C)cc1C)CC1CCCO1 (stereo not drawn)
  NPYLR7 ag = 38	NPYLR7 ag max-min = 24
SMILES: COc1ccnc(NCCc2cn3ccccc3n2)n1
  NPYLR7 ag = 0	NPYLR7 ag max-min = 14

(cont.)
smiles | NPYLR7 ag | NPYLR7 ag max-min
Cc1nn(C2CCS(=O)(=O)C2)c2nc(-c3cccs3)cc(C(=O)NC3CCCC3)c12 (stereo not drawn) | 4 | 8
Cc1ccc(N(CCCCN2C(=O)c3ccccc3C2=O)C(=O)C23CC4CC(CC(C4)C2)C3)cc1 | 1 | -4
CC1CC(=O)c2cnc3c(c2C1)c(=O)[nH]c(=O)n3CCN1CCOCC1 (stereo not drawn) | -3 | -7
CCNC(=S)N(Cc1csc(COc2ccccc2C(C)C)n1)C(C)CC (stereo not drawn) | 24 | 31
O[C@@H]1CN(c2nccc(C3CCCC3)n2)CC[C@H]1N1CCOCC1 | -2 | -4
O=C(Cc1c[nH]c2ccccc12)NCCc1nc2c(s1)CCCC2 | 1 | 0
COCCOC(=O)C1=C(C)N(C)C(=O)NC1c1ccc([N+](=O)[O-])cc1 (stereo not drawn) | 1 | -10
COc1nn(C)cc1C(=O)NC1CCCCC1 | 5 | 6
COc1ncccc1C(=O)N(C)C(C)c1ccc(S(C)(=O)=O)cc1 (stereo not drawn) | 7 | 5
Cn1c(=O)c2c(nc(Cl)n2CC(=O)N(CCC#N)c2ccc(F)cc2)n(C)c1=O | 8 | 4
CN(CC#N)CC[C@@H]1CC[C@H](O)[C@@H](C(=O)Nc2nccs2)O1 | -6 | -14
